BJeLR viability – MLPCN primary cell-based screen for lethality selective to Ras in HRASV12 cells; BJeLR (HRASV12) viability, CellTiter-Glo ATP luminescence, 48 h; reference of the scale not given here; inhibition, % (no concentration beside the values); hit rate 0.17% among 300,000; AID 1554, 2009;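 active means replicate mean above 50%; inconclusive means above 50% but judged a plate artefact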;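 further: 50 nL library stock added to about 25 µL; numbers are from one replicate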
Sa RN4220 lethal – growth inhibition of S. aureus RN4220, primary screen, OD600; 16 h; inhibition, % (test concentration not listed); hit rate 0.33% among 330,000; AID 1259311, 2017;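 active means z-score of -3 or lower and OD600 up to 0.18 on both plates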;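 further: plate controls were untreated cells for no effect and reference antibiotic for full effect; stock transfer was 100 nL into about 80 µL; one replicate is shown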
PrP UTR inh – inhibition of PrP 5' UTR reporter expression; cell-based PrP 5' UTR mRNA reporter, plate reader; inhibition, % (test concentration not listed); hit rate 0.35% among 340,000; AID 488862, 2010;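 active means every replicate at 50% or more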;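 further: 0 = median of the neutral control wells; tested in H4 reporter cells; numbers are from one replicate; inactives centre near -14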
Mtb hypoxia rep – PubChem AID 1159583; M. tuberculosis hypoxia-regulated fluorescent reporter, fluorescence; fluorescence inhibition, % (no concentration beside the values); hit rate 0.1% among 300,000;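 active means 35 to 45% if threefold the growth effect, above 45% if 1.5-fold the growth effect; inactive means the rest, general growth blockers included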;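 further: wells of about 50 µL received 100 nL stock; 0% = vehicle wells and 100% = reference inhibitor wells; whole bacteria with a GFP reporter of the hypoxia response; strong numbers were not always called active; many hits fall short of the cut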
Autofluor counter – flagged as autofluorescent in microsphere protease counterscreen; AID 624483; compound autofluorescence counterscreen, microsphere flow cytometry; active compounds read high; fluorescence intensity (concentration not given with the values); hit rate 3.1% among 360,000;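 active means at least 3 SD above the mean of all compounds, about 16000 in these data; inconclusive means too few beads counted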;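 further: 100 nL of 1 mM stock went into each well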
Sa ugtP lethal – growth inhibition of ugtP-null S. aureus, primary screen, RN4220 ugtP deletion, OD600; 16 h; some inactives read as strong as hits; growth inhibition, % (test concentration not listed); hit rate 0.54% among 330,000;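 active means z-score under -3 and OD600 up to 0.15 on both plates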;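 further: plate controls were untreated wells for no effect and antibiotic for full effect; wells of about 80 µL received 100 nL stock; the first replicate is given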
Mtb hypoxia rep growth – recorded beside Mtb hypoxia rep, whose call it bears; growth inhibition, %; measured here: M. tuberculosis growth (absorbance);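 0% = vehicle and 100% = reference antibiotic; read after six days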
Starred values were filed as active, the others as inactive.

How did COc1cc2c(cc1OC)C(/C=C/c1ccco1)=NCC2 do in these assays?
BJeLR viability: 7.4; Sa RN4220 lethal: -1.4; PrP UTR inh: -5.4; Mtb hypoxia rep: 4.2; Autofluor counter: 3683; Sa ugtP lethal: -1.0; Mtb hypoxia rep growth: 1.1

Results for O=C(Nc1cccc(Cl)c1N1CCCC1)c1ccco1 ?
BJeLR viability: 6.6; Sa RN4220 lethal: -6.7; PrP UTR inh: -11.0; Mtb hypoxia rep: 5.8; Autofluor counter: 3706; Sa ugtP lethal: 11.0; Mtb hypoxia rep growth: 6.6

Results for COc1cc(CNCCN2CCOCC2)ccc1OCc1ccc(Cl)cc1 ?
BJeLR viability: 6.2; Sa RN4220 lethal: -6.5; PrP UTR inh: -8.7; Mtb hypoxia rep: 9.5; Sa ugtP lethal: -10.2; Mtb hypoxia rep growth: 18.8

Results for O=C(Nc1cccc([N+](=O)[O-])c1)ONC1=NCCCCC1 ?
BJeLR viability: 1.5; Sa RN4220 lethal: 4.8; PrP UTR inh: 0.2; Mtb hypoxia rep: 13.6; Autofluor counter: 3613; Sa ugtP lethal: 1.8; Mtb hypoxia rep growth: -2.2

What do the screens show for `CN(C)c1nnnn1-c1ccc(Oc2ncc(C(F)(F)F)cc2Cl)cc1`?
BJeLR viability: 4.7; Sa RN4220 lethal: -1.1; PrP UTR inh: -10.3; Mtb hypoxia rep: -3.5; Autofluor counter: 3305; Sa ugtP lethal: -1.8; Mtb hypoxia rep growth: 2.1

Results for O=C(O)CSC1CC(=O)N(c2ccc(Cl)cc2)C1=O (configuration not stated) ?
BJeLR viability: 7.8; Sa RN4220 lethal: 8.3; PrP UTR inh: -8.5; Mtb hypoxia rep: 7.9; Autofluor counter: 7014; Sa ugtP lethal: 14.0; Mtb hypoxia rep growth: 4.1

Results for Nc1nc(COc2ccccc2)cs1 ?
BJeLR viability: -7.5; Sa RN4220 lethal: 2.7; PrP UTR inh: -40.9; Mtb hypoxia rep: 8.7; Autofluor counter: 10237; Sa ugtP lethal: 3.5; Mtb hypoxia rep growth: 2.6

What do the screens show for `CC1=CC(=O)C=C(C)C1=NOC(=O)C=Cc1ccccc1`?
Sa RN4220 lethal: 8.0; Mtb hypoxia rep: 11.5; Sa ugtP lethal: -2.6; Mtb hypoxia rep growth: 7.8

How did CC(=O)Nc1cccc(NC(=O)c2ccc([N+](=O)[O-])cc2Cl)c1 do in these assays?
BJeLR viability: -2.7; PrP UTR inh: -5.9; Autofluor counter: 9583

Results for COc1cc(C2CC(=O)Nc3cc(C)c(C)cc32)cc(OC)c1OC (configuration not stated) ?
BJeLR viability: -4.6; Sa RN4220 lethal: 2.9; PrP UTR inh: -27.0; Mtb hypoxia rep: 3.3; Autofluor counter: 2513; Sa ugtP lethal: -2.1; Mtb hypoxia rep growth: 7.6

How did Cc1ccc(C(=O)NC(=S)NCC2CCCO2)cc1[N+](=O)[O-] (configuration not stated) do in these assays?
BJeLR viability: 7.1; Sa RN4220 lethal: 4.6; PrP UTR inh: 5.3; Mtb hypoxia rep: 17.5; Autofluor counter: 3307; Sa ugtP lethal: 0.4; Mtb hypoxia rep growth: 3.0

Results for O=C(CN1CCCCC1)Nc1ccccc1-c1ccccc1 ?
BJeLR viability: -7.2; Sa RN4220 lethal: 6.9; PrP UTR inh: -18.5; Mtb hypoxia rep: 8.0; Autofluor counter: 6277; Sa ugtP lethal: 19.1; Mtb hypoxia rep growth: -3.0

How did Cc1nn(-c2ccc3ccccc3c2)c(=O)c2ccccc12 do in these assays?
BJeLR viability: 2.1; Sa RN4220 lethal: -2.2; PrP UTR inh: -67.1; Mtb hypoxia rep: 2.8; Autofluor counter: 2024; Sa ugtP lethal: 15.1; Mtb hypoxia rep growth: -2.8

Results for C#CCOCCOCCOCCNc1nc(N2CCN(C(=O)C(CCCN=C(N)N)n3cc(C(N)C(C)CC)nn3)CC2)nc(N2CCN(C(=O)C(C(C)O)n3cc(C(N)CCCCN)nn3)CC2)n1 (configuration not stated) ?
Sa RN4220 lethal: 0.1; Mtb hypoxia rep: 13.5; Sa ugtP lethal: -2.3; Mtb hypoxia rep growth: -1.5

Results for O=C(Nc1ccc(F)cc1)Nc1ccc(S(=O)(=O)N2CCCC2)cc1 ?
Sa RN4220 lethal: 1.1; PrP UTR inh: -9.5; Mtb hypoxia rep: -9.6; Autofluor counter: 4073; Sa ugtP lethal: -12.3; Mtb hypoxia rep growth: 2.0

Sorted by SMILES length (high to low): three of the compounds above
What do the screens show for `CN(C)c1nnnn1-c1ccc(Oc2ncc(C(F)(F)F)cc2Cl)cc1`?
BJeLR viability: 4.7; Sa RN4220 lethal: -1.1; PrP UTR inh: -10.3; Mtb hypoxia rep: -3.5; Autofluor counter: 3305; Sa ugtP lethal: -1.8; Mtb hypoxia rep growth: 2.1

How did Cc1ccc(C(=O)NC(=S)NCC2CCCO2)cc1[N+](=O)[O-] (configuration not stated) do in these assays?
BJeLR viability: 7.1; Sa RN4220 lethal: 4.6; PrP UTR inh: 5.3; Mtb hypoxia rep: 17.5; Autofluor counter: 3307; Sa ugtP lethal: 0.4; Mtb hypoxia rep growth: 3.0

Results for O=C(O)CSC1CC(=O)N(c2ccc(Cl)cc2)C1=O (configuration not stated) ?
BJeLR viability: 7.8; Sa RN4220 lethal: 8.3; PrP UTR inh: -8.5; Mtb hypoxia rep: 7.9; Autofluor counter: 7014; Sa ugtP lethal: 14.0; Mtb hypoxia rep growth: 4.1

Continued:
What do the screens show for `Cc1ccc(NC(=O)c2cc3c(=O)oc4ccc(C)cc4c3s2)nc1`?
BJeLR viability: 6.4; Sa RN4220 lethal: 6.1; Mtb hypoxia rep: 2.6; Sa ugtP lethal: -2.0; Mtb hypoxia rep growth: 2.6

Results for CCCCCC(=O)N1CCN(CCN=CC2=C(O)CC(c3ccco3)CC2=O)CC1 (configuration not stated) ?
BJeLR viability: -5.1; Sa RN4220 lethal: 1.0; PrP UTR inh: -3.6; Mtb hypoxia rep: 9.4; Autofluor counter: inconclusive; Sa ugtP lethal: 1.6; Mtb hypoxia rep growth: 5.5

How did O=c1c2ccc([N+](=O)[O-])cc2ncn1CCOc1ccc(Cl)cc1 do in these assays?
BJeLR viability: 0.3; Sa RN4220 lethal: -3.1; PrP UTR inh: 1.1; Mtb hypoxia rep: 0.3; Autofluor counter: 7714; Sa ugtP lethal: 6.3; Mtb hypoxia rep growth: 4.2

How did C=CCn1c(C)nnc1SCC(=O)Nc1cc(S(=O)(=O)N2CCCC2)ccc1Cl do in these assays?
Sa RN4220 lethal: 1.9; PrP UTR inh: -22.6; Mtb hypoxia rep: -5.4; Autofluor counter: 5668; Sa ugtP lethal: 2.9; Mtb hypoxia rep growth: 5.9

What do the screens show for `Clc1nc(Cl)nc(N(c2ccccc2)c2ccccc2)n1`?
BJeLR viability: 5.7; Sa RN4220 lethal: 5.1; PrP UTR inh: -24.8; Mtb hypoxia rep: 5.9; Autofluor counter: 2473; Sa ugtP lethal: 3.1; Mtb hypoxia rep growth: 13.4

How did CC(C)CC(NC(=O)CCCNC(=O)CCC(=O)OC1O[C@H]2OC3(C)CC[C@H]4[C@H](C)CCC(C1C)C24OO3)C(=O)O (some centres not stated) do in these assays?
BJeLR viability: -3.1; PrP UTR inh: 1.7; Autofluor counter: 3390

Results for CCc1ccccc1NC(=O)CSc1nnc(C2CC2)n1CC1CCCO1 (configuration not stated) ?
BJeLR viability: -6.4; Sa RN4220 lethal: 2.3; PrP UTR inh: -17.3; Mtb hypoxia rep: 7.1; Autofluor counter: 5948; Sa ugtP lethal: 10.2; Mtb hypoxia rep growth: -0.8

What do the screens show for `COC(=O)c1nc(NC2=NCCCCC2)n[nH]1`?
BJeLR viability: -8.1; Sa RN4220 lethal: 3.1; PrP UTR inh: -14.6; Mtb hypoxia rep: 11.7; Autofluor counter: 9671; Sa ugtP lethal: -7.1; Mtb hypoxia rep growth: 2.3

What do the screens show for `CC1CCN(S(=O)(=O)c2cccc(C(=O)NNC(=O)c3ccco3)c2)CC1`?
BJeLR viability: -9.9; Sa RN4220 lethal: 1.3; PrP UTR inh: -17.2; Mtb hypoxia rep: 7.8; Autofluor counter: 5213; Sa ugtP lethal: 5.1; Mtb hypoxia rep growth: 2.9

What do the screens show for `CCc1ccc(-n2nc3ccc(NC(=O)c4ccc5c(c4)OCO5)cc3n2)cc1`?
BJeLR viability: 7.0; Sa RN4220 lethal: 0.5; PrP UTR inh: -26.6; Mtb hypoxia rep: 2.1; Autofluor counter: 5044; Sa ugtP lethal: -12.6; Mtb hypoxia rep growth: 10.8

Results for CC1=Nc2ncnn2C(c2ccccc2)/C1=N\O (configuration not stated) ?
BJeLR viability: -2.7; PrP UTR inh: -1.8; Autofluor counter: 8806

What do the screens show for `CCOC(=O)c1cc2c(ccn2C)n1CC(=O)N1CCN(c2cccc(C(F)(F)F)c2)CC1`?
BJeLR viability: 2.5; Sa RN4220 lethal: 0.1; PrP UTR inh: 15.7; Mtb hypoxia rep: -5.3; Autofluor counter: 6073; Sa ugtP lethal: 2.3; Mtb hypoxia rep growth: -8.8

What do the screens show for `O=C1c2nc3ccccn3c2C(=O)N1Cc1ccccc1`?
BJeLR viability: -0.4; Sa RN4220 lethal: 4.8; PrP UTR inh: -19.9; Mtb hypoxia rep: 3.9; Autofluor counter: 8718; Sa ugtP lethal: -4.4; Mtb hypoxia rep growth: 1.5

Results for CN(C)c1ccc(NS(=O)(=O)c2cc3c4c(c2)CC(=O)N4CCC3)cc1 ?
BJeLR viability: 3.1; Sa RN4220 lethal: 6.9; PrP UTR inh: 2.1; Mtb hypoxia rep: -3.0; Autofluor counter: 3615; Sa ugtP lethal: 4.9; Mtb hypoxia rep growth: -9.5

Results for CC(=O)C1=C(C)NC(=O)NC1c1cccc(O)c1 (configuration not stated) ?
BJeLR viability: 1.6; Sa RN4220 lethal: -0.6; PrP UTR inh: -8.5; Mtb hypoxia rep: 1.7; Autofluor counter: 5732; Sa ugtP lethal: -0.8; Mtb hypoxia rep growth: 3.4

How did COCCN(C(=O)c1ccc(OCC(C)C)cc1)c1c(N)n(Cc2ccccc2)c(=O)[nH]c1=O do in these assays?
BJeLR viability: 1.4; Sa RN4220 lethal: 3.6; PrP UTR inh: -2.5; Mtb hypoxia rep: 2.2; Autofluor counter: 4885; Sa ugtP lethal: 10.6; Mtb hypoxia rep growth: -1.0

Results for CC(=NNc1ccc([N+](=O)[O-])cc1)c1ccc(-n2nncc2C(C)(C)C)cc1 ?
Sa RN4220 lethal: 5.4; Mtb hypoxia rep: 6.3; Sa ugtP lethal: -0.5; Mtb hypoxia rep growth: 4.3

Results for Cc1ccc(Cn2cnc3ccccc32)cc1C ?
BJeLR viability: -0.1; Sa RN4220 lethal: 6.5; PrP UTR inh: -11.4; Mtb hypoxia rep: 9.0; Autofluor counter: 2460; Sa ugtP lethal: -6.0; Mtb hypoxia rep growth: 5.8

Results for COc1ccc(S(=O)(=O)NN=Cc2ccc(OCCN3CCOCC3)c(OC)c2)cc1 ?
Sa RN4220 lethal: 2.4; Mtb hypoxia rep: 9.5; Sa ugtP lethal: 2.6; Mtb hypoxia rep growth: 11.5

How did O=C(COC(=O)CNS(=O)(=O)c1ccccc1)Nc1ncc(Cl)cc1Cl do in these assays?
Sa RN4220 lethal: 2.1; PrP UTR inh: -4.5; Mtb hypoxia rep: 2.5; Autofluor counter: 4014; Sa ugtP lethal: 2.9; Mtb hypoxia rep growth: 1.0

Results for COc1ccc(-c2c(-c3ccccc3)c(C(=O)C(=O)NCCCN(C)C)n3ccc4cc(OC)c(OC)cc4c23)cc1OC ?
BJeLR viability: 3.1; Sa RN4220 lethal: -4.6; PrP UTR inh: 4.7; Mtb hypoxia rep: 12.4; Autofluor counter: 2730; Sa ugtP lethal: 0.6; Mtb hypoxia rep growth: 11.8

What do the screens show for `CC(C)c1ccc(NC(=S)NN2CCOCC2)cc1`?
BJeLR viability: 6.0; Sa RN4220 lethal: -1.5; PrP UTR inh: -48.7; Mtb hypoxia rep: 13.7; Autofluor counter: 2303; Sa ugtP lethal: 15.9; Mtb hypoxia rep growth: 2.7

Results for CC(=O)c1ccc(O[C@@H]2O[C@H](CO)[C@@H](O)[C@H](O)[C@H]2O)cc1 ?
Sa RN4220 lethal: -4.0; Mtb hypoxia rep: 3.0; Sa ugtP lethal: -6.5; Mtb hypoxia rep growth: 11.8

What do the screens show for `COc1cccc(C2CC(c3ccc(C)cc3)n3nc(N)nc3N2)c1` (configuration not stated)?
BJeLR viability: -1.1; Sa RN4220 lethal: 2.5; PrP UTR inh: 1.2; Autofluor counter: 4306; Sa ugtP lethal: 1.1

Screens as filed in PubChem.
